# Screening results (PubChem BioAssay)
# PKD1 kinase inh: PKD1 (human) kinase inhibition | Q15139 | PKD1 kinase fluorescence polarization assay | inhibition, %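 (about 10 µM by stock and volumes)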 | 200,000 tested, 0.056% active;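 active = inhibition of 50% or more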;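 note: controls were vehicle for no effect and a reference inhibitor for full effect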
# INS promoter inh: TRM-6 insulin promoter activity inhibition | TRM-6 cells (human fetal islet line), insulin promoter-eGFP reporter, imaging; reporter expression induced with tamoxifen | 130,000 tested, 0.9% active | inhibition, % at 2 µM;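 active = inhibition above the mean plus 3 SD, with well images judged a real hit on visual review, cut at about 60% in these data, passing the limit was not always enough; inconclusive = inhibition over the cutoff but images rejected on review; inactive = inhibition not above the cutoff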
# GALR2 ag: activates the human galanin receptor 2. 140,000 tested, 0.48% active. GALR2-expressing cells, agonist activation read-out. activation, %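 (tested at 5 µM)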;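 active = above mean plus 3 SD of all compounds, about 5% in these data, not always enough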;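 note: 0% = vehicle buffer wells and 100% = reference agonist at full effect; tested in CHO reporter cells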
# Target sequence (O43603 whole entry, looked up): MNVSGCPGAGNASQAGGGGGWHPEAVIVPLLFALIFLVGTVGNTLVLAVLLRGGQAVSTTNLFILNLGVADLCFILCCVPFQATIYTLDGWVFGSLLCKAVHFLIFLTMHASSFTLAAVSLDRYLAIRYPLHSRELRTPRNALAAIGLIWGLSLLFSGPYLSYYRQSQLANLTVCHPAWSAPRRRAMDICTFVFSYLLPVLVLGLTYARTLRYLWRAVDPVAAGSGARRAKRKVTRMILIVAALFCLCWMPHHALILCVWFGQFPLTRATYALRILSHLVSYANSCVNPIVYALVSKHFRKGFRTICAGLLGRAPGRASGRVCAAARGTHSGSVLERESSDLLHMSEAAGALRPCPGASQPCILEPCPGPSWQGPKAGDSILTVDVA
# HSV replic up: HSV replication enhancement. HSV replication augmentation in cells, fold increase. maximum fold increase. 220,000 tested, 0.005% active;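 active = peak rise of 1.5-fold or more in the series; inconclusive = self-fluorescent or not available for retest; tested in PC3 cells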;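 note: first round at 10 µM; read as green reporter fluorescence; hits show the peak of a series up to 25 µM; 1 = signal of infected wells without compound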
# RGS16-Gao HTS: modulates binding between human RGS16 and Galphao | O15492+P09471 | bead-based flow cytometry RGS16-Galphao binding, fluorescence; actives lie on both sides | binding response (% of control), % at 10 µM | 220,000 tested, 0.38% active;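 active = below 25% or above 175%, edge rows of some plates excepted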;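 note: Galphao activated by GDP with aluminum fluoride before binding; 100% = wells without compound and 0% = beads without RGS; some results beyond the cut were filed as inactive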
# Target sequence (O15492 whole entry, looked up): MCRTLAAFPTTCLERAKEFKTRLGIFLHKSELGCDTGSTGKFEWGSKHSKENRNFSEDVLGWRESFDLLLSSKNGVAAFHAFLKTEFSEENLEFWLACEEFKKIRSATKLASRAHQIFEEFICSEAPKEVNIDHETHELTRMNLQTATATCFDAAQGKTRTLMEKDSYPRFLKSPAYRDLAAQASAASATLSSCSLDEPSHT
# Target sequence (P09471 whole entry, looked up): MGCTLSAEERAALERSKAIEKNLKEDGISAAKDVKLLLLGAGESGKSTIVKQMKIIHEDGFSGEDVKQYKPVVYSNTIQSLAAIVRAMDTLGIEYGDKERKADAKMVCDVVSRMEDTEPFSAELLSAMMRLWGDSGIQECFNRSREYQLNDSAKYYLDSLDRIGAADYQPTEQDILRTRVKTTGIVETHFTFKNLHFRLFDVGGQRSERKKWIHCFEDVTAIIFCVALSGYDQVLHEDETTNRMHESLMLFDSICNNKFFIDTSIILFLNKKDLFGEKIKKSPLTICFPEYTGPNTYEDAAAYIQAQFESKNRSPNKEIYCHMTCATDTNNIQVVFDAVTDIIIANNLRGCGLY
# INS promoter inh cell count: recorded beside INS promoter inh, whose call it bears; normalized cell count, %; measured here: cell count, toxicity; reference of the scale not given here;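 cells exposed to compound for 48 h; stained nuclei by imaging scaled within each plate; lower means fewer cells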
# HSV replic up primary fold: further read-out of HSV replic up, marked with its call; fold increase; compound at 10 µM; measured here: primary screen fold increase 10 uM; tested in PC3 cells;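 GFP signal in the first replicate; 1 = infected wells without compound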
# The depositor's hits bear a star; i = inactive; ? = inconclusive; . = not tested or not shown.
SMILES,PKD1 kinase inh,INS promoter inh,INS promoter inh cell count,GALR2 ag,HSV replic up,HSV replic up primary fold,RGS16-Gao HTS
CN(C)c1nn(C(=O)Nc2ccc(Cl)cc2Cl)cc1-c1ccccc1,1,11,54,-0.1,i,0.78,70
COc1ccc(Cl)cc1NC(=O)CN1CCc2ccccc21,-3,.,.,.,i,1.1,99
COc1cc(NC(=O)CSc2nc3cc(C)ccc3cc2C)c(C(=O)O)cc1OC,2,.,.,1.1,i,1,101
CC(C)(C)NC(=O)CN(C(=O)CNC(=O)c1cccs1)c1ccc2c(c1)OCCO2,-9,16,92,-2.6,i,1.1,101
CC(Cc1ccccc1)C(=O)N(C)Cc1cccnc1 (configuration not stated),-9,-5,78,-0.6,i,1.1,90
c1cncc(-c2nc(N3CCOCC3)c3ccccc3n2)c1,1,46,160,-1.0,i,0.77,113
O=c1[nH]c2cc3c(cc2cc1CN(CCO)S(=O)(=O)c1ccccc1)OCCO3,.,.,.,.,i,0.81,93
Cc1cccc(NC(=O)CSc2nc(C)nc3c2c(=O)n(C)c(=O)n3C)c1,-7,.,.,-4.0,i,0.93,102
CC(C)C(C)(C#N)NC(=O)CSc1nnc(-c2ccccc2)o1 (configuration not stated),2,-34,88,-2.1,i,0.96,106
Cc1c(N=C2SCC(=O)N2/N=C/c2ccccc2)c(=O)n(-c2ccccc2)n1C,-3,.,.,-0.6,i,1,103
OC(CN1C2=NCCN2c2ccccc21)c1ccc(Br)cc1 (configuration not stated),1,3,121,-2.8,i,1,95
COc1ccc(-c2cc(C(F)(F)F)nc(N3CCN(c4ccc(F)cc4)CC3)n2)cc1OC,-3,-36,116,-0.3,.,.,16
CC(C)(C)NC(=O)CCN(/N=C/c1ccc([N+](=O)[O-])o1)C1=NS(=O)(=O)c2ccccc21,-2,-63,113,0.5,i,0.82,95
O=C(c1cccs1)N1CCCC(c2nc(-c3ccc(F)cc3)no2)C1 (configuration not stated),-6,-30,143,-1.4,i,1.1,97
CCOC(=O)C1CCCCN1C(=O)CCc1c(C)nc2ncnn2c1C (configuration not stated),-12,-38,68,-2.5,i,0.98,101
COC(=O)c1ccccc1NC(=O)c1ccc(COc2ccccc2)o1,5,i,42,-3.8,i,0.8,100
CCOC(=O)c1nnsc1NC(=O)Nc1ccc(OC)cc1,-1,.,.,.,i,0.95,102
CS(=O)(=O)N1CCCC(C(=O)NCc2ccccc2Cl)C1 (configuration not stated),-5,-37,29,-0.7,i,0.76,103
COc1cccc(/C=N/NC(=S)NC2CC3CC2C2C=CCC32)c1O (configuration not stated),.,.,.,.,i,0.7,104
O=C(CN1CCCC1)Nc1ccc(Cl)cc1C(F)(F)F,0,.,.,.,i,0.97,91

# Entries of single compounds, quoted from the list.
# COc1cc(NC(=O)CSc2nc3cc(C)ccc3cc2C)c(C(=O)O)cc1OC is listed as PKD1 kinase inh: 2; INS promoter inh: .; INS promoter inh cell count: .; GALR2 ag: 1.1; HSV replic up: i; HSV replic up primary fold: 1; RGS16-Gao HTS: 101
# CS(=O)(=O)N1CCCC(C(=O)NCc2ccccc2Cl)C1 (configuration not stated) is listed as PKD1 kinase inh: -5; INS promoter inh: -37; INS promoter inh cell count: 29; GALR2 ag: -0.7; HSV replic up: i; HSV replic up primary fold: 0.76; RGS16-Gao HTS: 103

# New compounds follow
SMILES,PKD1 kinase inh,INS promoter inh,INS promoter inh cell count,GALR2 ag,HSV replic up,HSV replic up primary fold,RGS16-Gao HTS
CCn1cc(S(=O)(=O)CC(=O)Nc2ccc(OC)cc2)c2ccccc21,-14,.,.,-1.5,i,1,117
C=CCN1C(=O)C2C(C(=O)NCc3ccccc3)C3C=CC2(O3)C1C(=O)NC(C)(C)C (configuration not stated),-1,-3,100,-1.3,i,0.93,86
CCOC(=O)C1CCN(C(=O)c2ccc(NS(=O)(=O)c3ccc(F)cc3C)cc2)CC1,-2,.,.,.,i,1,104
CC(C)CNC(=O)CCCc1ccccc1,6,.,.,-2.4,i,1.1,100
COc1ccc(OC)c(C(C(=O)NCc2ccco2)N(C(=O)Cn2nnc3ccccc32)C(C)C)c1 (configuration not stated),-6,.,.,-1.3,i,1.1,112
C(=N\n1cnnc1)/c1cccs1,-7,-7,64,-1.5,i,1,107
S=C(NCCN1CCOCC1)Nc1ccccc1Cl,10,38,56,-1.1,i,1,295
CCCN(CC1CC1)c1nc(N)c(C#N)c(CC#N)c1C#N,-6,.,.,-0.9,i,0.91,108
O=C(Nc1nc2ccccc2s1)C1CC(=O)N(c2ccccc2)C1 (configuration not stated),-6,0,212,0.2,i,0.73,101
COc1ccc2[nH]c(=O)c(CNc3cccc(C)c3)cc2c1,-6,24,62,-0.6,i,0.93,97
Clc1ccccc1-c1nc2nc3ccccc3nc2n1-c1ccc2c(c1)OCO2,-6,-53,100,1.3,i,0.8,100
Nc1nnc(CCCCCc2nnc(N)s2)s1,3,.,.,.,i,0.91,102
Cn1cccc1CC(=O)N/N=C/C=C/c1ccccc1,-2,33,102,0.1,i,0.89,95
COc1ccc(C2(C)NC(=O)N(Cc3cc(Cl)cc4c3OCOC4)C2=O)cc1OC (configuration not stated),2,-100,107,-0.2,i,0.84,109
COc1cc(NC(=O)C/C(C)=N/NC(=O)Cc2ccccc2)c(OC)cc1Cl,-3,-14,98,0.2,i,1.1,124
CSCCC(C(=O)O)N1C(=O)c2ccc(C(=O)O)cc2C1=O (configuration not stated),1,39,43,-0.5,i,0.9,97
COc1cccc(NC(=O)Cc2cccs2)c1,0,0,85,-0.6,i,0.87,96
O=C(Nc1cccc(NC(=O)C2CC3CCCC(C2)C3=O)n1)C1CC2CCCC(C1)C2=O (configuration not stated),0,-28,120,-2.1,i,0.94,98
c1ccc(CSCc2cn3ccccc3n2)cc1,-9,65,139,.,i,0.9,102
O=S(=O)(Nc1ccc(C(F)(F)F)cn1)c1ccccc1,.,.,.,.,i,0.98,105
Cc1ccc(S(=O)(=O)N2CCOCC2)cc1NC(=O)COC(=O)CNC(=O)c1ccc(Oc2ccccc2)cc1,-10,5,77,-1.6,i,0.97,102
CCCCC(=O)N(Cc1ccc(-c2ccccc2-c2nn[nH]n2)cc1)[C@H](C(=O)O)C(C)C,.,.,.,.,i,0.9,103
COC(=O)C1=COC(C)C2CN3CCc4c([nH]c5ccccc45)C3CC12 (configuration not stated),8,.,.,-1.5,?,.,117
CCCCCN1C=CC=C/C1=C\C=C(C#N)C#N,.,.,.,.,?,.,97
CCCNC(=S)NNC(=O)c1cccs1,-6,.,.,.,i,0.94,101
COc1cc(OC)c2c(-c3ccccc3)cc(=O)oc2c1C(CCN1CCCC1)c1ccc2c(c1)OCO2 (configuration not stated),.,.,.,.,i,0.73,93
Cn1c(SCC(=O)N/N=C/c2cccnc2)nnc1-c1ccccc1,.,.,.,.,i,0.88,102
COC(=O)c1ccc(CN(Cc2ccc(C(=O)OC)o2)C(C)(C)C)o1,-14,-56,77,-2.6,.,.,130
Cn1c(C(=O)N2CCN(c3cccc(C(F)(F)F)c3)CC2)cc2sccc21,-5,-12,126,-0.4,i,1,102
O=C(c1cccs1)c1no[n+]([O-])c1C(=O)c1cccs1,-1,24,77,0.1,i,0.69,92

# Reprinted at random: 3 entries already listed, in no set order.
SMILES,PKD1 kinase inh,INS promoter inh,INS promoter inh cell count,GALR2 ag,HSV replic up,HSV replic up primary fold,RGS16-Gao HTS
CCCNC(=S)NNC(=O)c1cccs1,-6,.,.,.,i,0.94,101
COc1cc(OC)c2c(-c3ccccc3)cc(=O)oc2c1C(CCN1CCCC1)c1ccc2c(c1)OCO2 (configuration not stated),.,.,.,.,i,0.73,93
COC(=O)C1=COC(C)C2CN3CCc4c([nH]c5ccccc45)C3CC12 (configuration not stated),8,.,.,-1.5,?,.,117

# Additional results follow:
SMILES,PKD1 kinase inh,INS promoter inh,INS promoter inh cell count,GALR2 ag,HSV replic up,HSV replic up primary fold,RGS16-Gao HTS
CNC(=O)CS(=O)CC(=O)Nc1cc(OCCOC)c(Cl)cc1Cl (configuration not stated),2,.,.,.,i,0.97,100
Cc1cccc(C2Nc3ccccc3C(=O)N2c2ccccc2)n1 (configuration not stated),2,.,.,-2.7,i,0.9,98
CCc1nc2ccc(C(=O)NCc3ccccc3)cc2nc1CC,5,-80,80,.,i,1,97
Cc1cc(C)n2nc(-c3sccc3-n3cccc3)cc2n1,-5,41,95,-0.1,i,0.92,100
NS(=O)(=O)c1ccc(NC(=O)C(Sc2ccccc2)c2ccccc2)cc1 (configuration not stated),-11,.,.,-0.2,i,1.1,58
COc1ccc(-n2c(-c3ccc(Cl)cc3)c[n+]3c2CCc2ccccc2-3)cc1,-7,57,79,.,i,1,87
Cc1cc(C)c2[nH]c(=O)c(C(c3nnnn3Cc3ccc4c(c3)OCO4)N3CCCC3)cc2c1 (configuration not stated),-3,0,90,-0.6,i,0.85,103
Clc1ccc(Cn2ccc(C3CC3)n2)cc1,0,.,.,.,i,0.97,94
COc1ccc(OC)c(NC(=O)C2CC(=O)N(c3ccc(Br)cc3)C2)c1 (configuration not stated),32,-47,177,-2.3,i,0.97,101
Cc1ccc(C(=O)NCC(=O)O)o1,-3,.,.,.,i,0.92,104
CCn1c(COc2ccccc2C(N)=O)nc2ccccc21,-8,-114,92,-2.8,i,0.95,100
COc1ccc(O[C@H]2C=C[C@@H](c3ccccc3)O[C@@H]2CO/N=C(\C)CCC(=O)OC[C@H]2O[C@H](c3ccccc3)C=C[C@@H]2Oc2ccc(OC)cc2)cc1,-11,-24,63,-0.4,.,.,110
COc1ccc(NC(=O)C2CCN(S(=O)(=O)c3cccnc3)CC2)cc1Cl,-8,-5,112,-0.7,.,.,100
COc1coc(C(O)C[N+](=O)[O-])cc1=O (configuration not stated),-7,.,.,-0.6,i,1.1,104
O=C(OC1CCc2ccccc2C1=O)c1ccccc1O (configuration not stated),-1,13,124,-2.3,i,0.96,100
CN(NC(=O)Nc1ccccc1)c1cnn(C)c(=O)c1Cl,.,.,.,.,i,1,101
O=c1[nH]nc(Cc2ccc(-c3ccccc3Cl)o2)c2ccccc12,-4,21,76,1.0,i,1.1,103
CC1=NN(c2ccccc2)C(=O)C1N=Nc1ccc(C)cc1 (configuration not stated),-5,-44,75,.,i,0.87,102
O=C(/C=C/c1ccc(Cl)c([N+](=O)[O-])c1)Nc1ccc(N2CCCC2)c(Cl)c1,0,-54,117,-1.2,i,0.66,99
COc1ccc(OCCCC(=O)NCc2ccco2)cc1,-2,-11,130,-4.4,i,0.93,97
CCCCOn1c(C)c(C(=O)OCC)c2c3no[n+]([O-])c3ccc21,-8,.,.,-0.6,i,0.97,81
COC(=O)c1ccc(C(=O)NC(=S)Nc2nc3c(s2)CC(C)CC3)cc1 (configuration not stated),-11,.,.,-0.9,i,0.84,102
O=C(NC(=S)Nc1ccc(S(=O)(=O)N2CCOCC2)cc1)c1ccccc1[N+](=O)[O-],-3,.,.,.,i,0.76,102
CS(=O)(=O)N(CC(=O)NCc1ccco1)c1ccc(Cl)c(C(F)(F)F)c1,4,55,97,-1.2,i,0.82,102
COc1ccc(-c2nn(-c3ccccc3)cc2C(=O)Nc2nccs2)cc1OC,-4,-362,129,-1.9,i,0.75,25*
COc1cccc(/C=C/C(=O)NCCc2ccc(OC)c(OC)c2)c1,-4,.,.,0.5,i,1.3,104
NC(=NC(=O)c1ccc(OCC(F)(F)F)nc1)c1ccc(Cl)cc1,.,.,.,.,i,0.6,104
C#CC1(NC(=O)NCCCC)CCCCC1,11,.,.,.,i,1.2,97
COC(=O)c1noc(C)c1-c1ccnn1C(=O)c1ccc(C)cc1,.,.,.,.,i,0.94,99
CCn1c(SCC(=O)N2CCCC2)nc2c(c1=O)SC(C)C2 (configuration not stated),-5,.,.,-0.2,i,0.91,102
CSc1nc2nc3c(cc2c(=O)[nH]1)C(O)Oc1ccc(C)cc1-3 (configuration not stated),10,.,.,.,i,0.98,102
CCOC(=O)N1CCN(CC(=O)c2ccc3c(c2)CCN3)CC1,-1,36,129,-3.8,i,0.89,105
Cc1nnc(Sc2cc(NCCO)c([N+](=O)[O-])c3nonc23)s1,1,50,90,.,i,0.94,70
O=C(CSc1ccc2nnc(CCNC(=O)c3ccccc3)n2n1)Nc1ccccc1F,-3,.,.,.,i,0.85,101
COc1ccc2ncc(S(=O)(=O)c3ccccc3)c(N3CCN(c4ccccc4)CC3)c2c1,-6,25,119,1.5,i,0.84,96
COc1cc(C2C(C(=O)Nc3ccc(F)cc3)=C(C)Nc3nc(CCCO)nn32)cc(OC)c1OC (configuration not stated),13,.,.,.,i,1,105
CC1(OC(=O)C2CCCC2)C(=O)C=C2C=C(c3ccsc3)N(CCCCO)C=C2C1=O (configuration not stated),.,.,.,.,i,0.9,102

# Rows are unselected, and some 1.3% of all compounds hit somewhere here.
